Screens from PubChem.
Menin MLL FP FL – displaces fluorescein MLL peptide from human menin | Fluorescence polarization, fluorescein-MLL peptide displacement from menin | FP activity change, % at 61.4 µM | 290,000 tested, under 10 active | AID 1766; inconclusive = falling polarisation curve, or a change in total fluorescence; inactive = total fluorescence flat and polarisation flat or rising; no compound was filed as active; the % refers to the polarisation; negative = inhibition;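 further: % of control where 0% means no effect; inhibitors lower the polarisation; unlabelled MLL peptide was the positive control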
D2 PAM – human D2 receptor positive allosteric modulation | P14416 | DiscoveRx D2 beta-arrestin cells, luminescence, 90 min; 100% = 57 uM dopamine signal | potentiation, % (concentration not given with the values) | 360,000 tested, 0.23% active | AID 624464; active = potentiation of 50% or more; inconclusive = 30% to 50%; inactive = 30% or less;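 further: compound concentration not given in the record; tested on top of an EC20 dose of dopamine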
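D2 cells co-treated with compound plus 50 nM dopamine (EC20) for 90 min at 37 deg C to detect potentiation. Beta-arrestin recruitment was read as enzyme-fragment luminescence after 1 h at ambient temperature. Full response was set by 57 uM dopamine.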
TRPV1 PAM – enhances activation of the human vanilloid receptor TRPV1; potentiation, % at 8.33 µM; Q8NER1; TRPV1-expressing cells, Fluo-8 calcium influx, capsaicin EC20 potentiation; host cell line not named in the record; control for the full effect not named in the record; AID 540277; 320,000 tested, 0.02% active; active means potentiation above 80%; inconclusive means 30% to 80%; inactive means below 30%; further: 0% is about no effect
Target sequence (Q8NER1 whole entry, looked up): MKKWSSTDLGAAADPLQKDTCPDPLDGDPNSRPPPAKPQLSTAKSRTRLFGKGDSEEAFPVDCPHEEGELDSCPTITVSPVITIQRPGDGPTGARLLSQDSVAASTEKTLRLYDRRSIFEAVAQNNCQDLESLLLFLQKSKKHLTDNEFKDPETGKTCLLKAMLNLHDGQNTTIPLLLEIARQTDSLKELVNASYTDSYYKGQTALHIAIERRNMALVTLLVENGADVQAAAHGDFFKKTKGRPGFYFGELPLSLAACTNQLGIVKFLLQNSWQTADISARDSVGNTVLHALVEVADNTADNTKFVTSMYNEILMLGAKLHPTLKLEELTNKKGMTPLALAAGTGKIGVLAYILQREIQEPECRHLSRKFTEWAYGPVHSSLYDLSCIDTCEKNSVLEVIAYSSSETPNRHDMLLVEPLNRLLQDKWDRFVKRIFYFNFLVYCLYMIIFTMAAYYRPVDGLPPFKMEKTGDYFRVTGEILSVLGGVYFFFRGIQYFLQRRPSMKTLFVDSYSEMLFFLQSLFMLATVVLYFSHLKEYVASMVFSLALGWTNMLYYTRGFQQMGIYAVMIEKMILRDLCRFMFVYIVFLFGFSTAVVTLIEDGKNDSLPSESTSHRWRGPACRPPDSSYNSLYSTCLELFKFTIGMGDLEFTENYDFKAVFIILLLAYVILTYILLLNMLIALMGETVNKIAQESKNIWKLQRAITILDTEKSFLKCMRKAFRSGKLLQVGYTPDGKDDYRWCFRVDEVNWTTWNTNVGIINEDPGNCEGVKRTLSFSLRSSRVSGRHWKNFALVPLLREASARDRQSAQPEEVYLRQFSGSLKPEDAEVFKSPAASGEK
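Cells expressing TRPV1 were dye-loaded with Fluo-8 and read kinetically: 10 s baseline, 3 min after compound (agonist portion), then 2 min after EC20 capsaicin (allosteric enhancer portion). Calcium-bound dye fluorescence at 480/520 nm.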
gsp ag – activates gsp, the McCune-Albright syndrome mutation; gsp mutant cells, cAMP HTRF, 30 min; control for the full effect not named in the record; Potency, µM (series often up to 76.9 µM), inactives show at the highest dose activation (cAMP increase), usual class: activators; 340,000 tested, 0.13% active; active = well fitted activation curve with a large enough effect; inconclusive = small, poorly fitted or top-dose-only effect, or another doubt; inactive = no such curve, though single readings can be large or run the other way; cell line not stated here;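 further: phosphodiesterase inhibitor Ro 20-1724 added with compounds to block cAMP breakdown; potency means the concentration at half of the fitted maximal effect; nearly all actives have a fitted effect of over 60% in size; about a fifth of the inactives were tested at one dose only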
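Cells in DMEM/10% FBS with G418 were pretreated with compounds in DMSO plus […] (300 uM stock) for 30 min at 37C. cAMP was measured by HTRF (cAMP-d2 plus anti-cAMP antibody-K) after 30 min at room temperature.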
gsp antagonist – antagonizes gsp, the McCune-Albright syndrome mutation; AID 624288; 340,000 tested, 0.4% active; Potency, µM (highest dose often 76.9 µM), inactives show at the top dose activity change, negative = inhibition, actives largely listed as inhibitors; gsp-mutant cells, cAMP HTRF, 30 min; control for the full effect not named in the record; active = falling curve of any shape with a large fitted effect; inconclusive = falling curve, mostly with a smaller effect; inactive = flat or rising curve; cell line not stated here;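 further: intracellular cAMP measured with PDE inhibitor Ro 20-1724 present during compound exposure; potency means the concentration at half of the fitted maximal effect; on the % scale 0 is the no-effect control and ±100 the full control effect; nearly all actives have a fitted effect of over 65% in size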
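Measurement of cellular cAMP by homogeneous time-resolved fluorescence following a 30 min compound exposure at 37C. The PDE inhibitor […] was present throughout; the assay buffer was DPBS with 0.05% BSA and 0.005% Tween 20.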
Sfp PPTase inh – blocks B. subtilis Sfp PPTase activity; Biochemical Sfp PPTase activity, qHTS; Potency, µM, without a hit: max response, negative = inhibition, hits mostly inhibitors; 310,000 tested, 3.5% active; AID 1490; active means well fitted inhibition curve with a large enough effect; inconclusive means small, poorly fitted or top-dose-only effect, or another doubt; inactive means no such curve, though single readings can be large or run the other way;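 further: the enzyme is Sfp with the accession as filed and its product quenches rhodamine fluorescence; potency means the concentration at half of the fitted maximal effect; 0% = enzyme reaction without inhibitor and -100% = no enzyme wells; top concentration of the series not given in the record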
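With Hepes-Na pH 7.6 buffer containing 10 mM MgCl2, Sfp (15 nM) modified BHQ-2-YbbR (12.5 uM) using rhodamine-CoA (5 uM). Two reads 30 minutes apart at 525/598 nm yielded each well's rate.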
ClpP mod – qHTS Assay for Activators of ClpP; ATP-dependent Clp protease proteolytic subunit (Bacillus subtilis (strain 168)), P80244; purified B. subtilis ClpP, FRET peptide cleavage, 20 min; Potency, µM (doses to about 57.5 µM), inactives show at the top dose activity change, negative = active; 340,000 tested, 1.9% active; AID 651965, 2013; active = well fitted falling curve with a large enough effect; inconclusive = small, poorly fitted or top-dose-only effect; inactive = no such curve, though single readings can be large or run the other way; further: potency means the concentration at half of the fitted maximal effect; the source files actives as falling curves though it sought activators and does not explain the sign; nearly all actives have a fitted effect of over 65% in size; many hits overshoot -100%
Target sequence (P80244 whole entry, looked up): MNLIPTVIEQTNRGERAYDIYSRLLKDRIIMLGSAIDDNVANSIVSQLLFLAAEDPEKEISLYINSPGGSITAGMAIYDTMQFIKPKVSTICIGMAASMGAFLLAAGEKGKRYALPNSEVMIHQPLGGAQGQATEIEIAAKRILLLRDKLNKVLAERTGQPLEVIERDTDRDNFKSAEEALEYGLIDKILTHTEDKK
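FRET quenching reversal measured ClpP activation: 10 microg/mL B. subtilis ClpP at pH 8 with the FRET-FV decapeptide, read at 430 nm after 320 nm excitation. The 20-min minus 0-min signal was scaled between DMSO/no-enzyme wells and ADEP (5.8 microM final).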
The depositor's hits bear a star; & = joins results of further samples; [ ] = another dose, or the depositor's remark. Hits appear at their usual frequency; 5.1% or so of the library scored in one or more.

`CCc1ccc(C2C(C#N)=C(N)Oc3cc(N)ccc32)cc1` (stereo not given) gave Menin MLL FP FL 9.6, D2 PAM -2, TRPV1 PAM 15, gsp ag -22%, gsp antagonist -9% and Sfp PPTase inh 10%.
O=C(CNC(=O)c1ccc(Cl)cc1Cl)OCc1cn2cc(Br)ccc2n1 was read as D2 PAM -4, gsp ag inconclusive and gsp antagonist 2%.
For CC(C)(C)OC(=O)N1CCC[C@H]1c1nnc(SCc2c(Cl)cccc2Cl)o1 the results were Menin MLL FP FL 5.0, D2 PAM -4, TRPV1 PAM -20, gsp ag 6%, gsp antagonist -12%, Sfp PPTase inh -11% and ClpP mod 1.2%.
`CC12C(=O)N(CCC(=O)O)C(=O)C1C1C=CC2C1` (stereo not given) gave Menin MLL FP FL 0.4, D2 PAM -17, TRPV1 PAM -1, gsp ag -32%[inhibitor], gsp antagonist 16%, Sfp PPTase inh -1% and ClpP mod 1.8%.
Screening OC(COc1ccc(Br)cc1)CN1CCN(c2ccccc2)CC1 (stereo not given) returned Menin MLL FP FL 0.1, D2 PAM -14, TRPV1 PAM -2, gsp ag -17%, gsp antagonist 11%, Sfp PPTase inh 20% and ClpP mod 0.5%.
Screening C[C@@H]1CN([C@@H](C)CO)C(=O)c2cc(NC(=O)C3CCCCC3)ccc2O[C@@H](C)CCCCO[C@@H]1CN(C)Cc1ccncc1 returned D2 PAM 1, gsp ag -91%[inhibitor] and ClpP mod 0.5%.
Screening Cc1nnc(SCC(=O)NCc2ccc(Cl)cc2)[nH]c1=O returned Menin MLL FP FL 5.5, D2 PAM -16, TRPV1 PAM -1, gsp ag -8%, gsp antagonist -5%, Sfp PPTase inh -11% and ClpP mod 1.1%.
CCN(CC)C(=O)[C@]1(c2ccccc2)C[C@@H]1CN was read as Menin MLL FP FL 0.8&-3.0, TRPV1 PAM 8 and Sfp PPTase inh -9%&24%.
For Cc1ccc(S(=O)(=O)n2nc(-n3c(C)ccc3C)c3c(F)cccc32)c2ccccc12 the results were Menin MLL FP FL 3.5, D2 PAM -3, TRPV1 PAM 3, gsp ag -9%, gsp antagonist -3% and Sfp PPTase inh 10%.
Screening O=C(CSc1nnnn1-c1cccnc1)Nc1ccc(F)cc1F returned D2 PAM -4, TRPV1 PAM 0, gsp ag -60%[inhibitor], gsp antagonist 5%, Sfp PPTase inh 23% and ClpP mod -3.2%.
Screening Cc1nc2nc(SCC(=O)NCCCN3CCCC3)nn2c(C)c1Cc1ccccc1Cl returned Menin MLL FP FL 1.1, D2 PAM -7, TRPV1 PAM 29, gsp ag -2%[15.4 µM], gsp antagonist 1% and Sfp PPTase inh 3%.
C/C(=N\Nc1nc(-c2cc(C)ccc2C)cs1)c1cc2ccccc2oc1=O was read as Menin MLL FP FL 2.5, D2 PAM -17, TRPV1 PAM 4, gsp ag 7%, gsp antagonist 2%, Sfp PPTase inh 3% and ClpP mod 0.6%.
CCCN1CCC(NC(=S)Nc2cccc(Cl)c2Cl)CC1 was read as Menin MLL FP FL -1.4, D2 PAM -6, TRPV1 PAM 1, gsp ag -9%, gsp antagonist 8%, Sfp PPTase inh 19% and ClpP mod 1.0%.
For Cc1ccc(NC(=O)c2nc[nH]c2C(=O)N(C)Cc2ccccc2)cc1 the results were D2 PAM -28, TRPV1 PAM 0, gsp ag 0%, gsp antagonist -7% and ClpP mod 2.5%.
Screening O=C(Cn1cnc(S(=O)(=O)N2CCCCC2)c1)Nc1ccc(OC(F)(F)F)cc1 returned D2 PAM -10, TRPV1 PAM -2, gsp ag 2%, gsp antagonist 10%, Sfp PPTase inh 8% and ClpP mod -2.7%.
For CCc1nn(C(C)C(=O)NCc2cccc(OC)c2)c(=O)c2cc3occc3n12 (stereo not given) the results were Menin MLL FP FL 0.1, D2 PAM -9, TRPV1 PAM 6, gsp ag 4%, gsp antagonist 12%, Sfp PPTase inh 21% and ClpP mod -2.8%.
`O=C1CC(c2ccsc2)c2ccc3ccccc3c2N1` (stereo not given) gave Menin MLL FP FL 1.0, D2 PAM -7, TRPV1 PAM -1, gsp ag -51%[inhibitor], gsp antagonist -5% and Sfp PPTase inh -12%.
Screening O=C1NCCC/C1=N/Nc1cc(F)ccc1F returned Menin MLL FP FL -0.2, D2 PAM -17, TRPV1 PAM -7, gsp ag 7%, gsp antagonist 2%, Sfp PPTase inh 9% and ClpP mod 0.2%.
`CS(=O)(=O)NN1C(=O)c2ccccc2NC1c1cccc(O)c1` (stereo not given) gave Menin MLL FP FL 3.0, D2 PAM -3, TRPV1 PAM 0, gsp ag -5%[15.4 µM], gsp antagonist 9% and Sfp PPTase inh 19%.
`O=C1c2ccccc2S(=O)(=O)N1CC1CC(c2ccccc2Cl)=NO1` (stereo not given) gave Menin MLL FP FL 1.3, D2 PAM -14, TRPV1 PAM -4, gsp ag 4%, gsp antagonist -15%, Sfp PPTase inh -7% and ClpP mod -2.0%.
O=C(C[C@@H]1C/C=C\C[C@@H](NC(=O)OCC2c3ccccc3-c3ccccc32)C(=O)OC[C@@H](Cc2ccccc2)NC1=O)NCCO was read as D2 PAM -9, gsp ag inconclusive, gsp antagonist 4% and ClpP mod -3.3%.
`C=CCCC1CN(Cc2ccco2)S(=O)(=O)c2c(F)cccc2O1` (stereo not given) gave D2 PAM -5, gsp antagonist 2% and ClpP mod -1.6%.
Screening CCOC(=O)CSc1cccc2cccnc12 returned Menin MLL FP FL 2.1, D2 PAM -2, TRPV1 PAM 2, gsp ag -5%, gsp antagonist 8%, Sfp PPTase inh -24% and ClpP mod 16µM*.
For COc1ccccc1C(=O)NNC(=O)CN1C(=O)c2ccccc2C1=O the results were Menin MLL FP FL -2.0, D2 PAM 12, TRPV1 PAM 3, gsp ag -38%, gsp antagonist 2%, Sfp PPTase inh 6% and ClpP mod -1.2%.
`S=C(Nc1ccc(Br)cc1Cl)Nn1cnnc1` gave Menin MLL FP FL 5.3, D2 PAM -23, TRPV1 PAM 1, gsp ag 6%, gsp antagonist 1%, Sfp PPTase inh 22µM* and ClpP mod -2.9%.
COc1ccc(Cn2cnc([N+](=O)[O-])c2)cc1[N+](=O)[O-] was read as Menin MLL FP FL 5.1, D2 PAM -8, TRPV1 PAM 3, gsp ag -4%[15.4 µM], gsp antagonist 12% and Sfp PPTase inh 9%.
For Cc1cc(C)n(-c2nc3ccccc3nc2N2CCN(S(=O)(=O)c3ccc4ccccc4c3)CC2)n1 the results were Menin MLL FP FL -1.1, D2 PAM 2, TRPV1 PAM 10, gsp ag inconclusive, gsp antagonist -8%, Sfp PPTase inh 8% and ClpP mod inconclusive.
Screening Cc1ccc(-c2csc3ncnc(N4CCN(Cc5ccccc5)CC4)c23)cc1 returned Menin MLL FP FL 0.5, D2 PAM -3, TRPV1 PAM -1, gsp ag 9%, gsp antagonist -18%, Sfp PPTase inh -20% and ClpP mod -2.7%.
`NS(=O)(=O)c1ccc(CNC(=O)/C=C/c2cccc([N+](=O)[O-])c2)cc1` gave Menin MLL FP FL 0.3, D2 PAM -2, TRPV1 PAM 0, gsp ag 1%[15.4 µM], gsp antagonist 5% and Sfp PPTase inh 8%.
`Cc1ccc(/C=C/C(=O)OCn2nnc3ccccc3c2=O)o1` gave Menin MLL FP FL 2.4, D2 PAM -5, TRPV1 PAM 3, gsp ag -7%[15.4 µM], gsp antagonist -2% and Sfp PPTase inh -22%.
For COc1n[nH]c(C(=O)Nc2nc3ccccc3s2)c1[N+](=O)[O-] the results were Menin MLL FP FL 2.1, D2 PAM 7, TRPV1 PAM 4, gsp ag -3%[15.4 µM], gsp antagonist inconclusive and Sfp PPTase inh 28%.
Screening CC(C)c1ccc(C2NC(=S)NC3=C2C(=O)CC(C)(C)C3)cc1 (stereo not given) returned Menin MLL FP FL 2.3, D2 PAM -28, TRPV1 PAM 6, gsp ag -19%, gsp antagonist 7%, Sfp PPTase inh -12% and ClpP mod inconclusive.
`Cn1c2ccccc2c2nnc(SCC(N)=O)nc21` gave Menin MLL FP FL 0.0, D2 PAM -14, TRPV1 PAM -9, gsp ag inconclusive, gsp antagonist -1%, Sfp PPTase inh 3% and ClpP mod -1.0%.
Screening Cc1cc(=O)[nH]c(SC/C=C/c2ccccc2)n1 returned Menin MLL FP FL 5.1, D2 PAM -8, TRPV1 PAM -2, gsp ag 15%, gsp antagonist -8%, Sfp PPTase inh 13% and ClpP mod 0.2%.
Screening C[C@@H](NC(=O)[C@@H]1Cc2ccccc2CN1C(=O)OC(C)(C)C)C(=O)NC1CCCC1 returned Menin MLL FP FL -1.4, D2 PAM -11, TRPV1 PAM -2, gsp ag inconclusive, gsp antagonist 6%, Sfp PPTase inh 5% and ClpP mod -5.2%.
Screening CCN(CC)Cc1oc(-c2ccccc2)cc1C(=O)O returned Menin MLL FP FL 8.0, D2 PAM -10, TRPV1 PAM -3, gsp ag 8%[15.4 µM], gsp antagonist -26%, Sfp PPTase inh -18% and ClpP mod 0.1%.
For COc1ccc(-n2c(=O)[nH]cc(C(=O)Nc3ccccc3)c2=O)cc1 the results were Menin MLL FP FL 3.9, D2 PAM -13, TRPV1 PAM -12, gsp ag -51%[inhibitor], gsp antagonist -18%, Sfp PPTase inh 12% and ClpP mod -4.8%.
Screening Cc1nnc(SCC(=O)c2c(N)n(Cc3ccccc3)c(=O)n(C)c2=O)n1C returned Menin MLL FP FL 0.5, D2 PAM -3, TRPV1 PAM -2, gsp ag -2%, gsp antagonist 1%, Sfp PPTase inh -2% and ClpP mod 0.7%.
`COc1ccc(NS(=O)(=O)c2cc(C(=O)O)ccc2C)cc1` gave Menin MLL FP FL 3.2, D2 PAM -10, TRPV1 PAM -2, gsp ag 19%, gsp antagonist 1%, Sfp PPTase inh 0% and ClpP mod -3.1%.
COc1ccc(C(=O)c2oc3ccccc3c2NC(C)=O)cc1 was read as Menin MLL FP FL -5.8, D2 PAM -5, TRPV1 PAM 6, gsp ag 10%, gsp antagonist 9%, Sfp PPTase inh 19% and ClpP mod -23%.
`Cc1cc(C)cc(C(=O)N2CCCCCC2)c1` gave Menin MLL FP FL 2.5, D2 PAM 7, TRPV1 PAM -3, gsp ag 13%, gsp antagonist 1%, Sfp PPTase inh 24% and ClpP mod -0.6%.
